Screening data deposited in PubChem by National Center for Advancing Translational Sciences (NCATS).
TRPV1 potentiator – potentiators of human vanilloid receptor 1 (TRPV1); Q8NER1; TRPV1-expressing cells, Fluo-8 calcium influx, capsaicin EC20 potentiation; host cell line not named in the record; control for the full effect not named in the record; potentiation, % at 8.33 µM; 320,000 tested, 0.02% active; active means potentiation above 80%; inconclusive means 30% to 80%; inactive means below 30%; note: 0% is about no effect
Target sequence (Q8NER1 whole entry, looked up): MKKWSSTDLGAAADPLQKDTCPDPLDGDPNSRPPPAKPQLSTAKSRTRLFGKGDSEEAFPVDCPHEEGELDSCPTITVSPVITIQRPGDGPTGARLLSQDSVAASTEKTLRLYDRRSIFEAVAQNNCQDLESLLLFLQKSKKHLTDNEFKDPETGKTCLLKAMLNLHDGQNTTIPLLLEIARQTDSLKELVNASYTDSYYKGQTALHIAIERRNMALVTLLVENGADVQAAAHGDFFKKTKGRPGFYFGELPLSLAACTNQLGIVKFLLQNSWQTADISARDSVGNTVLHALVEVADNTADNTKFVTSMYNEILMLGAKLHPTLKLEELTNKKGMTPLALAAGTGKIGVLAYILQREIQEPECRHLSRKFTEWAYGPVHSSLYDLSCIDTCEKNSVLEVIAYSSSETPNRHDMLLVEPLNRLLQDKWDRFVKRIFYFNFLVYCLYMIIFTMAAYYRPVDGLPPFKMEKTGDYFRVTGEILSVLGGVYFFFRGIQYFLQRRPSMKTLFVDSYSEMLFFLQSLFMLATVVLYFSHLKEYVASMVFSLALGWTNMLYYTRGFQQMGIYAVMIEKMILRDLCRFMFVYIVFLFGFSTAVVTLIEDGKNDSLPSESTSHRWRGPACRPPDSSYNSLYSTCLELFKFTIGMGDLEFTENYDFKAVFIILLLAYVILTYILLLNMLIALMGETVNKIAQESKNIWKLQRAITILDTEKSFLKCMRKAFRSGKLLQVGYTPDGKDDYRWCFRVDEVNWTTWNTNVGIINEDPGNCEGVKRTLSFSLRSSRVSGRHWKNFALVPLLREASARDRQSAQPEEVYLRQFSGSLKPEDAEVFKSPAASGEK
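TRPV1-expressing cells were cultured overnight at 35.5C and loaded with Fluo-8 calcium dye for 40 to 90 min at room temperature. After a 10 s baseline, compound was added and calcium influx was read kinetically for 3 min (ex 480/em 520 nm).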
ClpP mod – qHTS Assay for Activators of ClpP | AID 651965, 2013 | 340,000 tested, 1.9% active | purified B. subtilis ClpP, FRET peptide cleavage, 20 min | Potency, µM (titrated, usually from 57.5 µM), without a hit: top-dose activity change, negative = active; active = well fitted falling curve with a large enough effect; inconclusive = small, poorly fitted or top-dose-only effect; inactive = no such curve, though single readings can be large or run the other way; note: potency is the fitted concentration of half-maximal effect; the source files actives as falling curves though it sought activators and does not explain the sign; nearly all actives have a fitted effect of over 65% in size; many hits overshoot -100%
Target sequence (P80244 whole entry, looked up): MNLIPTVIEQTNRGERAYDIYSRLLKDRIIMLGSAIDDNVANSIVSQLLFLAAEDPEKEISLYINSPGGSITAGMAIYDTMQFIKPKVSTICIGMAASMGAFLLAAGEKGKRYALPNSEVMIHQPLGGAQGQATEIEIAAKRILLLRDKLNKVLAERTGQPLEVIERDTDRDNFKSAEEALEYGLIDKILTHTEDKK
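Buffer: 100 mM Tris/HCl pH8, 100 mM KCl, 0.05% low protease BSA, 2.5% glycerol, 0.01% Tween-20. ClpP 10 microg/mL final; 20 min RT; delta FRET normalized to ADEP and DMSO controls.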
Menin-MLL FL inh – inhibitors of human menin-MLL interaction, wild-type MLL peptide; FP activity change, % at 61.4 µM; AID 1766; Fluorescence polarization, fluorescein-MLL peptide displacement from menin; 290,000 tested, under 10 active; inconclusive = falling polarisation curve, or a change in total fluorescence; inactive = total fluorescence flat and polarisation flat or rising; no compound was filed as active; the % refers to the polarisation; negative = inhibition;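 note: % of control where 0% means no effect; inhibitors lower the polarisation; unlabelled MLL peptide was the positive control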
gsp antag – gsp mutant antagonism; gsp-mutant cells, cAMP HTRF, 30 min; control for the full effect not named in the record; Potency, µM (doses to about 76.9 µM), without a hit: at the top dose activity change, negative = inhibition, usual class: inhibitors; 340,000 tested, 0.4% active; active = falling curve of any shape with a large fitted effect; inconclusive = falling curve, mostly with a smaller effect; inactive = flat or rising curve; cell line not stated here;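 note: intracellular cAMP measured with PDE inhibitor Ro 20-1724 present during compound exposure; potency is the fitted concentration of half-maximal effect; % is set by controls: 0 for no effect and ±100 for the full control effect; nearly all actives have a fitted effect of over 65% in size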
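Cells in G418 medium, seeded 16-24 h, 37C; buffer exchange to DPBS + 1 mM CaCl2, 0.5 mM MgCl2, 0.05% BSA; cpds in DMSO + […] (300 uM stock), 30 min 37C; HTRF cAMP detection.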
gsp ag – agonists of gsp mutant (McCune-Albright syndrome); AID 624287; Potency, µM (doses to about 76.9 µM), for the others: at the top dose activation (cAMP increase), usual class: activators; gsp mutant cells, cAMP HTRF, 30 min; control for the full effect not named in the record; 340,000 tested, 0.13% active; active = well fitted activation curve with a large enough effect; inconclusive = small, poorly fitted or top-dose-only effect, or another doubt; inactive = no such curve, though single readings can be large or run the other way; cell line not stated here;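 note: phosphodiesterase inhibitor Ro 20-1724 added with compounds to block cAMP breakdown; potency is the fitted concentration of half-maximal effect; nearly all actives have a fitted effect of over 60% in size; about a fifth of the inactives were tested at one dose only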
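Cells stably selected in G418 were plated at 2000/well, grown 16-24 hr, then given compounds in DMSO with the PDE inhibitor […] (300 uM solution added) for 30 min at 37C; cAMP was read by HTRF.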
Sfp PPTase inh – inhibitors of Bacillus subtilis Sfp phosphopantetheinyl transferase | Q9F4F7 | Biochemical Sfp PPTase activity, qHTS | Potency, µM, for inactives: max response, negative = inhibition, hits mostly inhibitors | 310,000 tested, 3.5% active | AID 1490; active = well fitted inhibition curve with a large enough effect; inconclusive = small, poorly fitted or top-dose-only effect, or another doubt; inactive = no such curve, though single readings can be large or run the other way;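 note: the enzyme is Sfp with the accession as filed and its product quenches rhodamine fluorescence; potency is the fitted concentration of half-maximal effect; 0% = enzyme reaction without inhibitor and -100% = no enzyme wells; top concentration of the series not given in the record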
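After 15 min at room temperature with compound, 15 nM Sfp received 5 uM rhodamine-CoA plus 12.5 uM BHQ-2-ybbR (50 mM Hepes pH 7.6, 10 mM MgCl2). Rate came from the fluorescence difference over 30 min, ex 525/em 598 nm.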
CtBP-E1A blk – inhibitors of CtBP/E1A interaction. AlphaScreen GST-E1A/His-CtBP binding, 1536-well; active compounds read low; control for the full effect not named in the record. activity change, % (test concentration not listed). 340,000 tested, 0.49% active; in the data active means activity change below about -65%; inconclusive means about -30% to -65%; inactive means above about -30%; note: % is set by controls: 0 for no effect and ±100 for the full control effect
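Steps: dispense buffer (Tris pH 8.0, NaCl 300 mM, TCEP 1 mM, BSA, Tween 20); add 5X protein mix (GST-E1A, His-CtBP, 125 nM each); pin 23 nL compound; 2 h at 37 °C, dark; add 5X beads (50 ug/mL); 1 h; read.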
Numbers without * were called inactive; u = inconclusive; x = not tested or not shown; & = joins results of further samples; ! = repeats disagree; [ ] = another dose, or the depositor's remark.

SMILES,Menin-MLL FL inh,gsp antag,CtBP-E1A blk,Sfp PPTase inh,gsp ag,ClpP mod,TRPV1 potentiator
CC(C)CC(C(=O)NC1CCCCC1)N(Cc1ccccc1)C(=O)c1snc(C(N)=O)c1N (stereo not drawn),-0.9,-14%,0,21%,8%,x,-5
O=C(COC(=O)c1ncc(Cl)c(Cl)c1Cl)NC(=O)NCc1ccccc1,0.9,-13%,10,5%,4%,x,9
O=C(CCSc1nnc(-c2ccncc2)o1)Nc1cccc2ccccc12,2.4,-2%,-1,6%,-26%,0.4%,7
O=C(CCn1c(=O)[nH]c2ccsc2c1=O)NCCc1ccc(Cl)cc1,14,3%,-3,26%,-58%[inhibitor],0.4%,7
Cc1ccc(N/N=C/c2ccc3c(c2)OCCO3)cc1Cl,-2.5,5%,-12,-10%,1%,-7.6%,6
CCC(C)[C@@H](C(=O)N1CCNCC1)n1cc(CCCN=C(N)N)nn1 (stereo partly drawn),-1.5,9%,7,-18%,x,-1.0%,10
CN(CC(=O)N1CCN(c2ccccn2)CC1)S(=O)(=O)c1ccc(Cl)cc1,-2.7,-19%,4,-8%,-9%,x,6
Cc1ccccc1C(=O)c1cccn1CC(=O)N1CCCCC1,1.2,0%,x,1%,14%,-0.3%,u
CCCN=Cc1sc2ccc(OCC)cc2c1O,3.2,u,4,50µM*,5%,4.1%,1
CCOc1ccccc1N(CC(=O)Nc1cc(OC)ccc1OC)S(C)(=O)=O,1.1,-8%,-5,16%,u,0.5%,16

SMILES,Menin-MLL FL inh,gsp antag,CtBP-E1A blk,Sfp PPTase inh,gsp ag,ClpP mod,TRPV1 potentiator
CCCOc1ccc(NCC(=O)Nc2ccc(C)cc2C)cc1,2.1,7%,-3,-9%,-8%,3.1%,2
CC1CCN(C(=O)c2ccc([N+](=O)[O-])o2)CC1,9.1,-1%,-9,16%,0%,x,2
COc1ccc(NN=Nc2nc3c([nH]2)c(=O)n(C)c(=O)n3C)cc1,10,3%,-3,16µM*,11%,x,x
O=S(=O)(c1cccc(S(=O)(=O)N2CCOCC2)c1)N1CCCCC1,2.0,-5%,-1,8%,u,-3.0%,-21
COc1ccc(CCNS(=O)(=O)c2cn(C)nc2C)cc1,-4.6,13%,-4,13%,19%,-1.5%,7
COc1cccc(C2C3=C(N=c4s/c(=C\c5ccc(OCC(=O)O)cc5)c(=O)n42)c2ccccc2CC3)c1 (stereo not drawn),14,-12%,x,56µM*,-21%,-2.7%,-8
COc1ccc(C(=O)NC(=S)NNC(=O)COc2ccccc2)cc1,0.3,-4%,-6,-11%,7%[15.4 µM],x,5
CCOC(=O)c1cc2c(=O)n3ccccc3nc2n(C(C)C)c1=NC(=O)c1c(-c2c(F)cccc2Cl)noc1C,4.7,-16%,1,-13%,u,4.1%&-28%,u
CC1=CC(C)(C)Nc2ccccc21,-0.8,-5%&5%,7&2,79µM*,12%,28µM*!,-1&7
CN(C)CCCN1C(=O)c2oc3ccc(F)cc3c(=O)c2C1c1cccnc1 (stereo not drawn),4.3,8%,0,-3%,-60%[inhibitor],-30%,14

SMILES,Menin-MLL FL inh,gsp antag,CtBP-E1A blk,Sfp PPTase inh,gsp ag,ClpP mod,TRPV1 potentiator
CC(=O)N1CCC(N(CCCOC(C)C)C(=O)Nc2ccc(C)c(C)c2)CC1,0.7,0%,-2,3%,u,-0.1%&0.4%,-2
COc1ccc(/C=N/n2c(SC)nnc(C(C)(C)C)c2=O)cc1OC,0.2,-20%,5,13%,11%,0.6%,-3
Cc1cc(OCC(=O)NCc2cccnc2)c2c(C)cc(=O)oc2c1,-5.2,-8%,-3,21%,15%,4.0%,-8
O=S(=O)(NCC1CC1)c1cc(Cl)cc(Cl)c1,1.3,1%,11,10%,16%,x,11
CC(C)NC(=O)CSc1nncn1-c1ccccc1,-1.7,-6%,10,12%,-39%[inhibitor],1.4%,-1
O=C(CN(Cc1cccs1)C(=O)CCC(=O)Nc1nccs1)NCc1ccccc1,-6.0,-4%,7,32%[activator],-3%,-0.2%,2
CCOC(=O)[C@H]1[C@H]2COc3ccc(Cl)cc3[C@@H]2N2C(=O)CN(Cc3ccc(Cl)cc3)C(=O)[C@@]12C,x,-15%,-10,x,-6%,0.5%,-2
Cc1cccc(NC(=O)Cn2c(=O)n(C)c3ccccc32)c1,12,-6%,11,8%,-10%,1.7%,5
Cc1occc1C(=O)N1CCN(C(=O)C2CCCO2)CC1 (stereo not drawn),-6.6,2%,-7,10%,-82%[inhibitor],-3.8%,-6
Cc1cccc(NC(=S)Nc2ccccn2)c1C,-0.6,12%,-6,-5%,7%[15.4 µM],1.2%,0

SMILES,Menin-MLL FL inh,gsp antag,CtBP-E1A blk,Sfp PPTase inh,gsp ag,ClpP mod,TRPV1 potentiator
c1ccc2c(c1)CSc1sccc1C2=C1CCNCC1,5.6,-2%,-21,-6%,-8%,-1.5%,-14
CCc1nnc(NC(=O)CCC(=O)N2CCN(Cc3cc(Cl)ccc3OC)CC2)s1,0.4,-1%,-3,13%,u,-0.1%,23
CC(=O)Nc1ccc(NC(=O)C(C)OC(=O)CCCN=C2NS(=O)(=O)c3ccccc32)cc1 (stereo not drawn),x,6%,-23,x,-50%,-12%,6
O=C(Cn1ncc2c3ccccc3n(Cc3ccccc3)c2c1=O)NCc1ccco1,5.5,5%,x,-22%,15%,-21%,17
N#Cc1c(N)n(-c2cccc(C(=O)O)c2)c2nc3ccccc3nc12,u,2%,x,12%,u,3.6%,10
CCc1ccc(NC(=O)COC(=O)CCC2CCCC2)cc1,x,4%,-3,x,-1%,-0.9%,-23
O=C(O)c1ccc(CN(c2ccccc2)S(=O)(=O)c2ccccc2)cc1,-1.1,4%,-9,22%,-12%,-0.3%,-19
N#Cc1ccccc1S(=O)(=O)N1CCN(C(=O)CCc2ccccc2)CC1,x,-1%,-6,x,u,-1.2%,15
O=S(=O)(NCCSc1nnc(-c2ccco2)n1-c1ccccc1)c1ccccc1,-2.0,-13%,-15,-5%,10%,0.2%,-4
C/C(=N\NC(=S)NCCc1ccccc1)c1ccc(O)cc1O,11,4%,u,0%,-3%[15.4 µM],x,29

SMILES,Menin-MLL FL inh,gsp antag,CtBP-E1A blk,Sfp PPTase inh,gsp ag,ClpP mod,TRPV1 potentiator
COc1ccc(N(CC(=O)NCCSCc2ccco2)S(=O)(=O)c2ccccc2)cc1,4.2,-2%,-9,-17%,16%,x,u
CCOC(=O)c1cc(CC)sc1NC(=O)c1cc(OC)c(OC)c(OC)c1,4.4,15%,10,-21%,19%,120%,13
Cc1ccc(C(=O)O/N=C(/c2nonc2N)N(C)C)cc1,5.8,-3%,5,10%,0%,-0.7%,-13
Cc1c(C(=O)OC(C)C)sc2nc[nH]c(=O)c12,3.2,8%,-6,7%,4%,u,-4
COc1cccc(Cn2cccc(NC(=O)Nc3ccc(C#N)cc3)c2=O)c1,-2.0,u,-8,3%,-8%,-15%,-5
Cc1ccc(-n2c(SCC(=O)NC3CCS(=O)(=O)C3)nc3ccccc3c2=O)c(C)c1 (stereo not drawn),x,x,2,x,-11%,-2.3%,x
CC(C)(C)C(=O)Nc1c(Cl)cccc1OC(F)(F)F,-14,6%,-5,4%,-3%[15.4 µM],x,1
CCOC(=O)Cc1csc(N/N=C\c2ccc(N(C)C)cc2)n1,9.0,-7%,-4,u,27%,-18%,-1
CCCc1cc(=O)oc2c3c(cc(OCC(=O)NCCCn4ccnc4)c12)OC(C)(C)CC3,4.0,-6%,-3,9%,x,4.7%,-13
CCOc1cc(C2C(C#N)=C(N)OC3CCCC(=O)C32)ccc1OCCN1CCOCC1 (stereo not drawn),-5.0,15%,24,10%,-24%,-4.0%,1

SMILES,Menin-MLL FL inh,gsp antag,CtBP-E1A blk,Sfp PPTase inh,gsp ag,ClpP mod,TRPV1 potentiator
COc1cc(CN2CCC(C(=O)N3CCN(c4ccccc4F)CC3)CC2)cc(OC)c1O,0.5,10%,-3,-18%,-6%,-1.5%,4
CC(C)(C)OC(=O)N1CCC(NC(=O)c2nc[nH]c2C(=O)NCc2ccccc2)CC1,x,-7%,-3,x,x,-11%,-4
CC(/C=C1\SC(=S)N(CCC(=O)Nc2nc(C)cs2)C1=O)=C\c1ccccc1,11,-4%,-2,-2%,17%,-0.3%,0
Cc1nc(N2CCN(S(=O)(=O)c3ccccc3)CC2)c2cc(-c3ccccc3)sc2n1,1.2,-4%,1,18%,16%,28µM*,-3
O=C(CSc1cccc2cccc(Cl)c12)OCC(=O)N1CCN(C(=O)c2ccco2)CC1,0.7,6%,-12,-10%,u,-5.2%,-9
CC(C)N(Cc1ccccc1)C(=O)c1cccs1,-5.1,1%,x,u,-17%,0.1%,12
O=C(COC(=O)c1ccc(Cl)cc1)NC(=O)NC1CCCC1,x,6%,4,x,13%[15.4 µM],x,-19
O=C(CCNS(=O)(=O)c1ccccc1)N1CCCCCC1,-3.3,12%,5,12%,10%,-2.9%,8
Cc1ccccc1NC1=C(Cl)C(=O)OC1OC(=O)c1ccccc1C (stereo not drawn),-0.5,-29%,4,-28%,-1%[15.4 µM],x,30
Cc1ccc(NC(=O)CNc2ccc(OC(C)C)cc2)c(C)c1,-4.6,-16%,-4,3%,2%,0.8%,2

SMILES,Menin-MLL FL inh,gsp antag,CtBP-E1A blk,Sfp PPTase inh,gsp ag,ClpP mod,TRPV1 potentiator
O=S(=O)(Cc1cc(-c2ccccc2Cl)no1)c1ccccc1,-0.5,-1%,16,13%,-3%,x,8
c1ccc2c(c1)c1c(c3ccccc32)CN2CCCC2C1 (stereo not drawn),x,-6%,-23,x,-4%,20µM*,x
Cc1cc(Nc2ccccc2)n(C(=O)c2ccccc2)n1,2.5,-23%,-1,4%,-4%[15.4 µM],-0.5%,3
c1ccc(Cc2nnc3sc(-c4cccnc4)nn23)cc1,-0.1,1%,-6,u,-39%[inhibitor],-7.1%,-4
Cc1scc(C(=O)N/N=C/c2ccc(Cl)s2)c1C,3.2,-15%,2,19%,16%,0.8%,-13
N/C(Cc1ccc(Cl)c(Cl)c1)=N\OC(=O)c1cccs1,-1.9,-21%,-3,16%,-26%,-1.3%,-13
CC(=O)Nc1ccc(OCC(O)CN2CCN(c3cccc(Cl)c3)CC2)cc1 (stereo not drawn),2.4,-7%,-11,23%,10%,1.1%,-2
